High-throughput results: PubChem BioAssay, National Center for Advancing Translational Sciences (NCATS)
GLA inh pH 4.5: qHTS Assay for Inhibitors of Human alpha-Galactosidase at pH 4.5; Alpha-galactosidase A (Homo sapiens), P06280; purified enzyme, 4-MU-alpha-Gal fluorescence, pH 4.5; activity change, negative = inhibition, % at 105 µM; 230,000 tested, under 10 active; AID 1467, 2008; inconclusive = small, poorly fitted or top-dose-only inhibition, or a rising curve; inactive = flat fitted curve, though single readings scatter; no compound was filed as active;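 note: 0% = full activity with enzyme and -100% = basal without enzyme; dose as in the result columns while the protocol names 77 µM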
Target sequence (P06280 whole entry, looked up): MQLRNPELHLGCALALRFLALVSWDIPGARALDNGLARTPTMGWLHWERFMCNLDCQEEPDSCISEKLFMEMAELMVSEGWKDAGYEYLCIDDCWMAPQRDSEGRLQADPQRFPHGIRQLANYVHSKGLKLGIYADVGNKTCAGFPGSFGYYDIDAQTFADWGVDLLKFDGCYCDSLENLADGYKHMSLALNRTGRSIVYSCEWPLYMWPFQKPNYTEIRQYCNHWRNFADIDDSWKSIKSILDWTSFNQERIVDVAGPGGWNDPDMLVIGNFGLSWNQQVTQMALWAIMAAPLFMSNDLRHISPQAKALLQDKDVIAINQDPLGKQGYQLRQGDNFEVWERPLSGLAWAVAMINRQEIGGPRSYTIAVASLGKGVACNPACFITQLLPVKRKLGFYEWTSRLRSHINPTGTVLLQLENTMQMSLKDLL
Rango-impB inh: qHTS Assay for Inhibitors of Rango (Ran-regulated importin-beta cargo) - Importin beta complex formation | Potency, µM (series often up to 92.2 µM), inactives show at the top dose inhibition of complex formation | AID 540263, 2011 | Rango CFP/YFP FRET sensor + importin beta, 45 min | actives 0.031% (n = 340,000); active = rising FRET ratio curve, often small or poorly fitted; inconclusive = mostly compound fluorescence or quenching in the first reads; inactive = flat curves in all reads;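 note: potency is the fitted concentration of half-maximal effect; 0% = DMSO wells and 100% = buffer wells lacking importin beta; nearly all actives have a fitted effect of over 15% in size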
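FRET biosensor Rango (snurportin 1 IBB between N-terminal EYFP and C-terminal Cerulean), 50 nM in PBS/1 mM DTT/0.02% Tween-20/0.1% BSA, preincubated 5 min RT with compound; 0.125 microM importin beta added, 45 min RT, CFP/YFP FRET ratio read.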
Rango dissoc inh: qHTS Assay for Inhibitors of RanGTP induced Rango (Ran-regulated importin-beta cargo) - Importin beta complex dissociation; AID 540253, 2011; Potency, µM (top dose mostly 46.1 µM), without a hit: top-dose activity change, negative = inhibition; actives 0.071% (n = 340,000); Snurportin-1 (Homo sapiens) + GTP-binding nuclear protein Ran (Homo sapiens) + Importin …; Biochemical FRET Rango-importin beta, RanGTP-induced dissociation; active means falling FRET ratio curve, often poorly fitted, with flat reads before Ran was added; inconclusive means other falling curves, or compound fluorescence or quenching; inactive means flat or rising ratio curve;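 note: potency is the fitted concentration of half-maximal effect; % of control where 0% means no effect; nearly all actives have a fitted effect of over 45% in size; -100% = wells without RanGTP and RCC1; the record marks most hits as doubtful in a second field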
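Compounds preincubate 5 min with complex of recombinant Rango and importin beta in PBS with 1 mM DTT. Ran (0.6 uM) loaded with 2 mM GTP plus 0.2 uM RCC1 starts dissociation; FRET is recorded 45 min later.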
miR-21 FLuc: qHTS Assay for Modulators of miRNAs and/orActivators of miR-21; Potency, µM (series often up to 38.3 µM), without a hit: at the highest dose reporter change, positive = more light; 340,000 tested, under 10 active; HeLa miR-21 FLuc reporter, luciferase, 48 h; AID 2288, 2010; active = well fitted rising curve with a large enough effect; inconclusive = small, poorly fitted or top-dose-only effect; inactive = no such curve, though single readings can be large or run the other way;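 note: % of control where 0% means no effect; miR-21 action dims this reporter so a rising signal means less miR-21 action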
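HeLa miR-21-FLuc reporter line, endogenous miR-21; 2000 cells/well in DMEM/10% FBS; compound titration up to ~40uM final, 48 h, 37 degree Celsius; luciferase detection reagent, 15 min lysis, CCD luminescence.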
An asterisk follows results filed as active; u = inconclusive; x = not tested or not shown; & = joins results of further samples. The list is partial. The share of hits here may be higher or lower than overall.

SMILES	GLA inh pH 4.5	Rango-impB inh	Rango dissoc inh	miR-21 FLuc
CN1C(=O)C(=Cc2ccc(OCC(=O)Nc3ccccc3)cc2)C(=O)N(C)C1=O	x	1.4%	-21%	-33%
O=C(NCc1ccccc1)Oc1cccc(Cl)c1	-1	-4.0%	40%	-27%
COc1cccc(CN2CCNCC2)c1	x	-1.4%	-3%	-4%
O=S(=O)(NC1CCCCC1)OCC(Cl)(Cl)Cl	x	-0.1%	12%	5%
CCOC(=O)c1cc2c(cn1)[C@@H](CCO)NC2	x	-0.8%	9%	x
C=CCn1c(O)c(C(CC)=NCC2CCCO2)c(=O)[nH]c1=O (configuration not stated)	-2	-0.3%	2%	1%
CSc1nnc(C2CCNCC2)n1C	-4	0.4%	-3%	-4%
COP(=O)(OC)c1nc(-c2ccc([N+](=O)[O-])cc2)oc1N1CCCCC1	x	29µM*	5%	2%
CC(=NCc1ccco1)c1c(O)n(-c2ccc(C)cc2)c(=O)[nH]c1=O	-1	5.0%	1%	0%
C[N+]1(C)CCN(c2ccccc2)CC1	2	4.2%	-3%	-3%
c1cc2c(cc1CCNC1CCCCCC1)OCO2	1	0.4%	1%	-8%
CC1(C)CC(=O)C(C2(O)C(=O)NC(=O)NC2=O)=C(O)C1	5	3.3%	6%	-4%
CCOC(=O)C1(c2ccccc2)CCN(CC(=O)c2ccc(NC(C)=O)cc2)CC1	x	1.3%	5%	x
CN1C(=O)N(C)C(=O)C2(Cc3c(nc4ccccn4c3=O)N3CCc4ccccc4C32)C1=O (configuration not stated)	-4	4.6%	4%	-4%
COc1ccc(CNC(=O)C(NC(C)=O)C(C)C)cc1OC (configuration not stated)	8	0.1%	5%	-1%
Cc1ccc2c(c1)C1CN(C)CCC1N2C(=O)/C=C/c1ccc2c(c1)OCO2 (configuration not stated)	-13	-3.1%	-8%	-20%
Cc1ccc(C(=O)Cn2c(-c3ccccc3)noc2=O)cc1	-1	u	21%	-1%
C=CCc1cc(OC)c2c(c1)OCO2	x	0.1%	-13%	x
CC(C)CN1CCN(Cc2ccc(C(F)(F)F)cc2)CC1CCO (configuration not stated)	-4	3.9%	8%	-2%
O=C(c1ccc(CNS(=O)(=O)c2ccc(Br)cc2)cc1)N1CCC2(CC1)OCCO2	4	-3.0%	u	-3%
COC(=O)C1=C(c2cccc(OC)c2OC)C[C@@H]2CC[C@H]1N2C(=O)N1CCOCC1	x	-3.4%	0%	x
CN1C(=O)N(C)C(=O)C2(Cc3cc(NC(=O)c4ccccc4)ccc3N3CCCC32)C1=O (configuration not stated)	x	u	u	-7%
O=C(c1ccccc1)N1CCC2(CC1)OCCO2	-3	-0.1%	1%	0%
CCOC(=O)N1CCN(Cc2cn3ccccc3n2)CC1	-3	u	8%	-7%
COC(=O)c1cn(C(=O)c2cccc3ccccc23)c2ccccc12	-1	3.4%	3%	20%

Continued:
SMILES	GLA inh pH 4.5	Rango-impB inh	Rango dissoc inh	miR-21 FLuc
COc1cc(C(O)CN)ccc1O (configuration not stated)	-6	2.0%	-14%	x
COc1ccccc1CC1/C(=N/O)C2CCN1CC2 (configuration not stated)	9	-7.4%	-4%	-3%
O=C(Cc1c[nH]c2ccccc12)NNCc1ccc(N(CCCl)CCCl)cc1	x	-1.6%	-23%	x
COC(=O)C1=C(c2cccc(OCc3ccccc3)c2)C[C@@H]2CC[C@H]1N2C(=O)NCCCc1ccccc1	x	-1.1%	15%	x
Cc1cccc(NP(=O)(Oc2ccccc2F)Oc2ccccc2F)c1C	-12	-5.0%	12%	2%
Cc1ccc2nc3c(cc2c1)CC1(C(=O)N(C)C(=O)N(C)C1=O)C1CCCCN31 (configuration not stated)	1	1.7%	-6%	-30%
COC(=O)C1C2c3ccccc3OC1(C)N=c1s/c(=C/c3cnn(C)c3)c(=O)n12 (configuration not stated)	-6	-1.3%	-9%	-4%
CN1CCC23c4c5ccc(O)c4O[C@@H]2[C@H](O)C=CC3C1C5 (some centres not stated)	x	3.0%	1%	x
C[C@]12CC[C@H]3[C@@H](CCC4=CC(=O)CC[C@@]43C)[C@@H]1CC[C@@H]2O	x	-2.5%&-2.0%	-4%&1%	x
CCN(CC)CCCN=Cc1c(O)n(Cc2ccc(F)cc2)c(=O)[nH]c1=O	9	-0.8%	-3%	-3%
COc1cc2c3cc1Oc1cc(ccc1O)C[C@@H]1c4c(cc(OC)c(O)c4Oc4ccc(cc4)C[C@H]3N(C)CC2)CCN1C	x	10%	-5%	-3%
CCOC(=O)C1CCN(C=C2C(=O)N(C)C(=S)N(C)C2=O)CC1	4	-1.3%	3%	6%
C#CC1(O)CCC2C3CCC4=CC(=O)CCC4=C3C=CC21C (configuration not stated)	x	u	-7%	x
CC1(O)CCC2C3CCC4=CC(=O)CCC4(C)C34OC4CC21C (configuration not stated)	x	2.5%	-8%	x
Cc1nc2ccccc2c(=O)n1-c1ccc([N+](=O)[O-])cc1	x	6.1%	10%	-60%
CCCOC(=O)Nc1ccc([As](=O)(O)O)cc1NC(=O)OCCC	-3	0.8%	2%	-1%
CN1C(=O)N(C)C(=O)C2(Cc3cc(N)ccc3N3CCN(c4ccccc4F)CC32)C1=O (configuration not stated)	-8	x	x	-9%
OCC(Br)CBr (configuration not stated)	x	-0.7%	1%	x
COC(=O)C1=C(c2ccc(F)cc2F)C[C@@H]2CC[C@H]1N2C(=O)N1CCC(O)(c2ccc(Cl)cc2)CC1	x	-0.5%	27%	x
Cn1c(O)c(C=NCCCC(=O)O)c(=O)n(C)c1=O	3	u	u	-1%
O=C(O)C(Cl)(Cl)Cl	x	-3.9%	13%	x
COc1cccc(C(=O)C2CCCN(Cc3cccc4c3OCO4)C2)c1 (configuration not stated)	-1	0.2%	-9%	4%
C=C1C(C)C2C(Cc3ccccc3)NC(=O)C23OC(=O)/C=C/C(O)CCCC(C)C/C=C/C3C1O (configuration not stated)	x	1.2%	-2%	x
COc1ccccc1CC1C(=O)C2CCN1CC2 (configuration not stated)	6	1.9%	0%	-2%
O=C1NC(=O)N(c2cccc(Cl)c2)C(=O)/C1=C\c1ccc(Sc2nc3ccccc3[nH]2)o1	1	u	u	-2%

Next part.
SMILES	GLA inh pH 4.5	Rango-impB inh	Rango dissoc inh	miR-21 FLuc
C=CCn1c(O)c(/C=N/N2CCCCC2c2cccnc2)c(=O)[nH]c1=S (configuration not stated)	-1	1.5%	23%	-7%
Clc1ccccc1CN1CCN(c2cccc3[nH]ccc23)CC1	-5	0.2%	-6%	-6%
Cc1ccccc1NC1=NCCCS1	-1	-2.0%	4%	0%
COc1ccc(F)cc1CN1CCN(C(=O)CCC(=O)Nc2nnc(CC(C)C)s2)CC1	x	u	u	-2%
CC1=CC2OC3CC4OC(=O)C=CC=CC(C(C)O)OCC(O)C5(C)OC5C(=O)OCC2(CC1O)C4(C)C31CO1 (configuration not stated)	x	-0.5%	18%	x
Clc1ccc(-c2nc3ccc(Cl)cn3c2CN2CCCCC2)cc1	x	0.2%	1%	-16%
O=[N+]([O-])c1ccc(C(=Nc2ccccc2)N2CC2)cc1	x	-0.6%	5%	x
COc1ccc(CCNCC2CCCO2)cc1 (configuration not stated)	x	2.0%	-5%	-14%
c1ccc(C2N3CCCN23)cc1 (configuration not stated)	2	-0.4%	1%	-2%
O=Cc1cn(Cc2c(F)cccc2Cl)c2ccccc12	3	3.2%	5%	5%
COc1ccccc1N1CCN(Cc2ccc3c(c2)OCO3)CC1	x	1.3%	2%	x
COc1ccc(/C=C2/C(=O)N(Cc3ccco3)C(=O)N(C(C)C)C2=O)cc1	-4	u	-26%	-3%
COc1ccc(O)c(CN2CCCC(C(=O)c3ccccc3SC)C2)c1 (configuration not stated)	-3	-2.4%	0%	5%
O=[N+]([O-])c1cc(F)c(N2CCCC2)cc1N1CCNCC1	3	x	x	5%
CCC(=NC1CC1)c1c(O)n(C2CCCCC2)c(=O)[nH]c1=O	-2	0.7%	-8%	-33%
C=Cn1ccnc1P(=S)(c1ccc(N(C)C)cc1)c1nccn1C=C	-2	0.9%	13%	-7%
Cc1ncc([N+](=O)[O-])n1CCOc1nonc1N	10	0.7%	-4%	2%
COc1cc2c(cc1OC)[C@@H]1C(=O)c3ccc4c(c3O[C@@H]1CO2)C[C@H](C(C)C)O4	-11	2.0%	-8%	u
CC(C)=CCC12CN3CCN(CC(C3)C1=O)C2	3	-0.4%	10%	-2%
CCC1=CCN(CCc2c(C)[nH]c3ccccc23)CC1	x	1.9%	2%	x
COC(=O)C1=C(c2ccc(F)cc2F)C[C@@H]2CC[C@H]1N2C(=O)NC1CC1	x	4.0%	2%	x
CCCCCn1c(=O)c(C(=O)Nc2ccccc2)c(O)c2ccccc21	x	-1.8%	-12%	-15%
Cc1cc(/C=C2\C(=O)NC(=O)N(c3cccc(F)c3)C2=O)c(C)n1-c1cc(C(=O)O)cc(C(=O)O)c1	-17	-0.5%	2%	3%
C[C@@]1([C@@H](NP(=O)(c2ccccc2)c2ccccc2)c2ccccc2)C[C@H]1CCO	-19&-9	-4.1%	23%	3%
O=Cc1cn(Cc2ccc(F)cc2)c2ccccc12	-2	-1.6%	7%	25%

Part of the list above, reformatted:
| structure | GLA inh pH 4.5 | Rango-impB inh | Rango dissoc inh | miR-21 FLuc |
| --- | --- | --- | --- | --- |
| O=Cc1cn(Cc2c(F)cccc2Cl)c2ccccc12 | 3 | 3.2% | 5% | 5% |
| COc1ccccc1N1CCN(Cc2ccc3c(c2)OCO3)CC1 | x | 1.3% | 2% | x |
| COc1ccc(/C=C2/C(=O)N(Cc3ccco3)C(=O)N(C(C)C)C2=O)cc1 | -4 | u | -26% | -3% |
| COc1ccc(O)c(CN2CCCC(C(=O)c3ccccc3SC)C2)c1 (configuration not stated) | -3 | -2.4% | 0% | 5% |
| O=[N+]([O-])c1cc(F)c(N2CCCC2)cc1N1CCNCC1 | 3 | x | x | 5% |
| CCC(=NC1CC1)c1c(O)n(C2CCCCC2)c(=O)[nH]c1=O | -2 | 0.7% | -8% | -33% |

Remaining list, next part
SMILES	GLA inh pH 4.5	Rango-impB inh	Rango dissoc inh	miR-21 FLuc
O=C(NN=Cc1ccc(N(CCCl)CCCl)cc1)C(=O)c1c[nH]c2ccccc12	x	u	u	x
C=CCN1C(=O)C2(C(C(=O)OCC)=C(N)Oc3c2c(=O)oc2ccccc32)c2ccccc21 (configuration not stated)	-9	2.9%	1%	-2%
CCCCCCCCCCCCCCCC[N+](C)(C)C	-1	13%	1%	x
CSc1ccc(CN2CCN(C(=O)Cc3ccccc3)CC2)cc1	x	-6.0%	u	x
Cn1cc[n+](C)c1P(=S)(c1ccccc1)c1ccccc1	4	0.2%	2%	4%
CCCS(=O)(=O)N1CCCC(C(=O)N2CCC3(CC2)OCCO3)C1 (configuration not stated)	-5	2.0%	-2%	-6%
NC(=O)CS(=O)C(c1ccccc1)c1ccccc1 (configuration not stated)	-3&-11	x	x	-23%
FC(F)(F)c1ccccc1NC1=NCCCS1	x	u	30%	-1%
O=C(COC(=O)Cc1ccccc1)NC12CC3CC(CC(C3)C1)C2	-9	0.5%	4%	-3%
N#CCCn1cc(C(=O)Nc2ccc(F)cc2)c(-c2ccccc2)n1	x	-0.2%	-1%	-2%
Cc1ccccc1-n1c(C)nc2ccccc2c1=O	7	-2.0%	-14%	-2%
CC1(C(=O)O)CCCC2(C)c3cc(O)ccc3CCC12 (configuration not stated)	x	-0.1%	13%	x
O=C(O)CCn1cc(C=C2C(=O)NC(=S)NC2=O)c(-c2cccc(Br)c2)n1	-4	-1.3%	-1%	1%
CCN(CC)CCCN=Cc1c(O)n(-c2cccc(C)c2C)c(=O)[nH]c1=O	-6	4.3%	-10%	5%
CC1=CC2/C=C(\C)CCC(O)C(O)/C=C/C(=O)C23C(=O)NC(CC(C)C)C3C1C (configuration not stated)	7	-2.2%	-10%	u
O=C(O)c1nn(Cc2ccc(Cl)cc2Cl)c2ccccc12	3&1&-18	-0.8%	12%	0%
COC(=O)c1c(C)n(Cc2ccccc2)c2ccc(O)cc12	-3	-2.6%	11%	1%
